Vaccinia mCherry – qHTS for Stage-Specific Inhibitors of Vaccinia Orthopoxvirus: mCherry Reporter Primary qHTS. Vaccinia virus mCherry reporter infection, fluorescence; about a quarter of the inactives have no number. Potency, µM (series often up to 36.5 µM), inactives show at the top dose activity change, negative = inhibition, most hits filed as inhibitors. actives 0.63% (n = 310,000). AID 720579, 2013; active = well fitted inhibition curve with a large enough effect; inconclusive = small, poorly fitted or top-dose-only effect; inactive = no such curve, though single readings can be large or run the other way; tested in A549 cells; also: nearly all actives have a fitted effect of over 35% in size; inactives centre near -10
Vaccinia Venus – qHTS for Stage-Specific Inhibitors of Vaccinia Orthopoxvirus: Venus Reporter Primary qHTS. actives 0.46% (n = 330,000). Vaccinia virus Venus reporter expression, fluorescence. Potency, µM (series often up to 36.5 µM), for the others: at the top dose activity change, negative = inhibition, usual class: inhibitors; active means well fitted inhibition curve with a large enough effect; inconclusive means small, poorly fitted or top-dose-only effect; inactive means no such curve, though single readings can be large or run the other way; tested in A549 cells; also: nearly all actives have a fitted effect of over 30% in size; inactives centre near -10
* marks the source's active call; other numbers are inactive results; i = inactive; ? = inconclusive; . = no result given; & = joins results of further samples; [ ] = dose if it differs, or a comment. % is scaled to controls: 0 for no effect and ±100 for the full control effect; potency is read from the fitted curve at half-maximal effect. An unsorted share of the library. Share with any hit: about 0.88%.

SMILES	Vaccinia mCherry	Vaccinia Venus
C[C@H](NS(=O)(=O)c1ccccc1F)C(=O)OCC(=O)Nc1ccc2c(c1)OCCO2	-21%	-6%
Cc1cccc(CNC(=O)c2cnn(-c3ncc(C)c(-c4cccs4)n3)c2C2CC2)n1	-14%	5%
O=C(Nc1ccccc1N1CCCC1)C1CCN(S(=O)(=O)c2ccccc2C(F)(F)F)CC1	-9%	-28%
CCC(C)Sc1cccc(-c2nc3cnccn3c2NC2CCCCC2)c1 (configuration not stated)	?	?
CCOc1cc(/C=N/Nc2nc(-c3cccs3)c(NC(C)=O)s2)ccc1O	?	2%
CCO[C@H]1OC(C(=O)NCc2nc3ccccc3[nH]2)=C[C@@H](c2ccc(C(F)(F)F)cc2)[C@@H]1CCCO	i	?
CNc1nnc(CSc2nc(C)cc(C)n2)s1	.	-7%
CC(C)(C)c1ccc(CC(=O)N2CCC2(C)C(=O)NS(=O)(=O)c2cccc(Cl)c2)cc1 (configuration not stated)	-23%	-2%
Cc1ccc(NC(=S)NN(C)c2nc(C)cnc2C)cc1	-2%	-9%
Cc1cnc(CNC(=O)c2c3n(c(C)cc2=O)-c2ccccc2SC(c2ccsc2)C3)cn1 (configuration not stated)	-12%	-10%

Among those listed so far, 2 contain an aryl thioether with sulfur outside any ring:
SMILES	Vaccinia mCherry	Vaccinia Venus
CCC(C)Sc1cccc(-c2nc3cnccn3c2NC2CCCCC2)c1 (configuration not stated)	?	?
CNc1nnc(CSc2nc(C)cc(C)n2)s1	.	-7%

(listing goes on)
SMILES	Vaccinia mCherry	Vaccinia Venus
Cc1ccc(CCNC(=O)C2CC(=O)N(CCc3ccc(C)cc3)C2)cc1 (configuration not stated)	-16%	-2%
Cc1ccc(CC(=O)NCc2ccc(F)cc2)cc1	-8%	-24%
O=C(Nc1ccc(Br)cc1)C(c1ccccc1)c1ccccc1	6%	4%
O=C(c1ccccc1)N1CCN(CC#Cc2ccccc2)CC1	.	-28%
O=CC(=O)c1ccc(F)cc1	-15%	-7%
CC(O)c1cccc(NC(=O)CCCc2ccccc2)c1 (configuration not stated)	-25%	-6%
CCn1c(=O)cc(OCC(=O)NCc2ccccc2OC)c2ccccc21	-12%	-3%
CC1Oc2ccccc2N(CC(=O)c2ccc(F)cc2)C1=O (configuration not stated)	-5%	-2%
COC(=O)[C@H](Cc1ccccc1)NC(=O)N1CCCCC1	-2%	-8%
Cc1ccc(C(=O)N2CC(=O)Nc3ccc(C)cc3C2c2ccccc2)cc1 (configuration not stated)	-8%	-6%
O=C1CN(C(=O)COc2ccc(Cl)cc2Cl)c2ccccc2N1	i	-7%
COc1cccc(-c2ncnn2-c2sc3c(c2C#N)CCCCC3)c1OC	-14%	-11%
O=C(CCC(=O)N1Cc2ccccc2Oc2ncccc21)NCc1cccc(Cl)c1	-8%	-8%
O=C(Nc1ccc2c(c1)OCO2)c1cccn(Cc2ccccc2)c1=O	?	-19%
Cc1ccc(P(=O)(OCCN2CCOCC2)C(C)(C)C)o1 (configuration not stated)	-11%	-3%
c1ccc(-c2cc3ncc4c(n3n2)-c2ccccc2OC4)cc1	-1%	5%
COc1cc(C2C(C#N)=C(N)Oc3c2c(-c2ccccc2)nn3-c2ccccc2)cc(OC)c1OC (configuration not stated)	i	-14%
Cc1ccc(S(=O)(=O)N(CCC(=O)Nc2ccc(OC(F)(F)F)cc2)c2ccccc2)cc1	-25%	-22%
COCCc1nn2c(=O)cc(COC(=O)c3cccs3)nc2s1	-10%[7.34 µM]	-4%[7.34 µM]
Cc1ccccc1/C=C\c1nc2ccccc2c(=O)[nH]1	-17%	?
CCOC(=O)c1[nH]c2ccccc2c1NC(=O)COC	?	-7%
NC(=O)NCc1ccccc1Cl	i	-6%
COc1ccc(C)cc1NC(=O)CN1CCN(S(=O)(=O)c2ccc(Br)cc2)CC1	-12%	-28%&-4%
O=C(CCc1nc(-c2ccccc2F)no1)NCCc1ccccc1Cl	.	-25%
O=C(NNc1ccc(F)cc1F)c1cccs1	-9%	-13%
Cc1ccccc1CCNC(=O)c1ccc(Cl)c(S(=O)(=O)N2CC(C)OC(C)C2)c1 (configuration not stated)	-21%	?
COc1cccc(-c2nc(CSCC(=O)NCCc3ccc(Cl)cc3)c(C)o2)c1	-8%	-18%
COC1=CC(=O)OC(c2cccc(C(F)(F)F)c2)C1 (configuration not stated)	i	-5%
O=C(COc1ccccc1-c1nnc(-c2ccccc2)o1)Nc1ccc(Br)cc1F	-5%	-25%
COc1ccc(-c2[nH]ncc2-c2nc(C)cs2)c(O)c1	-16%	-1%
O=C(NCc1ccc2c(c1)OCO2)c1cccc([N+](=O)[O-])c1	.	-13%
CN(CCc1ccccc1)C(=O)c1cccc(NC(=O)Cc2cccc(NC(=O)C3CCCN(C(=O)C4CC4)C3)c2)c1 (configuration not stated)	i	0%
Nc1cc(-c2ccccc2)nn1S(=O)(=O)c1ccc(F)cc1	10µM*	?
CCOC(=O)C1(CCCc2ccccc2)CCN(C(=O)c2ccoc2)CC1	-12%	-3%
CC(C)(C)N1CC23CCC(C[C@@H]2C1=O)O3 (some centres not stated)	i	-4%
CCOC(=O)C1=C(c2ccccc2)NC(=O)NC1c1cc(Cl)c(O)c(OC)c1 (configuration not stated)	-27%	-13%
O=C(CNC(=O)c1ccc(Br)o1)NC1CCCCCC1	-13%	-7%
O=C(Nc1ccc(Cl)cc1C(=O)Nc1ccccn1)c1ccco1	?	-23%
COc1ccc(C(=O)Nc2ccc(/C(C)=N/NC(=O)c3ccccc3O)cc2)cc1OC	i	-8%
COC(=O)C(O)(c1ccc(NC(=S)NC(=O)c2ccccc2)cc1)C(F)(F)F (configuration not stated)	-7%	-3%
c1csc(CNc2ncncc2-c2ccc3c(c2)OCO3)c1	i	0%
CC(C)Cc1nnc(NC(=O)CCC(=O)N2CCC3(CC2)OCCO3)s1	-4%[7.34 µM]	-4%[7.34 µM]
COc1ccc(NC(=O)N(C)[C@H]2C[C@H]3c4[nH]c5ccccc5c4CCN3C(=O)[C@H]2[C@H](C)O)cc1	-12%	-12%
Cc1ccc(S(=O)(=O)N2CCN(CC(O)c3ccccc3)CC2)cc1C (configuration not stated)	i	-3%
CCOc1ccc(CNCc2c(C(=O)O)c(C)n(Cc3c(F)cccc3Cl)c2C)cc1OC	7%	-4%
Cc1ccc(-n2ncc3c2CC(C)(C)CC3NC(=O)CCn2cncn2)cc1 (configuration not stated)	-16%	-12%
CC(=O)N1CCN(C(=O)c2cc(S(=O)(=O)N(C)c3ccc(F)cc3)ccc2Cl)CC1	-1%	-14%
CCN(CC)CCCNc1oc(-c2ccc(OC)c(OC)c2)nc1C#N	.	-4%
COc1ccc(Cl)cc1Cn1c(C)c(C(=O)NCc2cccc(Cl)c2)sc1=O	i	-7%
Cc1ccc(CNC(=O)c2ccc(N3Cc4ccccc4Oc4ncccc43)s2)cc1	-10%	-15%

The list continues.
SMILES	Vaccinia mCherry	Vaccinia Venus
CCn1cc2nc(SCc3cccc(C(F)(F)F)c3)n(Cc3ccc(C)cc3)c(=O)c2n1	-22%	-22%
COc1ccc(NC(=O)CSC2=Nc3ccccc3C3=NC(CCC(=O)NC4CCCCC4)C(=O)N23)cc1 (configuration not stated)	-15%	-9%
Cc1ccccc1/C=N/NC(=O)Cn1nnc(N)n1	-3%	-3%
Cc1c(-c2cccs2)[n+](=O)c2c(n1[O-])CCC2	-6%	-8%
COc1ccc(C(=O)/C=C/c2ccc(OC)c(COc3ccc(F)cc3)c2)cc1	-11%	-1%
N#CCC(=O)Nc1ccc(C(=O)OCC(=O)NNC(=O)c2cccs2)cc1	-12%	-6%
O=[N+]([O-])c1ccccc1S(=O)(=O)NCCc1ccncc1	-10%	-11%
Cc1ccc(CSc2nc3nc(C)cc(C)c3c(=O)[nH]2)cc1	-14%	-14%
CCN(CC)C(=O)c1cccc(-c2csc(C(C)(O)c3cccc(F)c3)n2)c1 (configuration not stated)	-5%	?
COC(=O)C1=C(C)N(Cc2ccccc2)C(=NCCCCO)N[C@H]1c1ccccc1	0%	-9%
Cc1cc(C)cc(-n2nnc(-c3nc(-c4ccccc4F)no3)c2C)c1	-5%[7.34 µM]	-4%[7.34 µM]
CCOC(=O)c1ccc(NC(=O)C2=C(C)C(=O)OC23CCN(C(C)=O)CC3)cc1	-13%	-7%
COc1cccc(-c2nn(-c3ccc(C)cc3)cc2C(=O)N(C)CC(=O)Nc2cccc(F)c2)c1	-28%	?
CC(=O)Nc1ccc(C(=O)CSc2nnc3ccc4ccccc4n23)cc1	-19%	-7%
O=C(CSc1ccc(-c2ccccn2)nn1)NC1CCCC1	9%	11%
CCN(CC)c1nc(Oc2ccc(=O)[nH]n2)nc(N2CCOCC2)n1	-10%	1%
CCOc1ccc(NC(C)=O)cc1N	i	-7%
COc1ccc(CN2C(=O)C(CC(=O)NCc3cccs3)CC(C(=O)N3CCOCC3)=C2C)cc1 (configuration not stated)	0%	-13%
Cc1cc(C)c2nc(N3CCCC(C(=O)NCc4ccccc4F)C3)sc2c1 (configuration not stated)	3%	1%
O=C(NCCCN1CCCC1)c1[nH]c(C(F)(F)F)nc1-c1ccccc1	10%	-11%
Cc1cccc(S(=O)(=O)c2c(N)n(Cc3ccco3)c3nc4ccccc4nc23)c1	?	5%
CCOC(=O)c1ccc(NC(=O)CCNS(=O)(=O)c2cccs2)cc1	-7%	1%
CCN(C[C@H]1N[C@@](Cc2ccccc2)(C(=O)OC)[C@H]2C(=O)N(Cc3ccccc3)C(=O)[C@@H]12)C(=O)Nc1ccc(C(F)(F)F)cc1	?	?
Cc1cc(OCCN2CCOCC2)nc2ccccc12	.	-6%
O=C(CN(Cc1ccccc1Cl)C(=O)CCC(=O)Nc1nccs1)NCC1CCCO1 (configuration not stated)	-19%	-7%
Cc1ccc(CNC(=O)C2CCCN(S(=O)(=O)c3c(C)n[nH]c3C)C2)cc1 (configuration not stated)	0%	-14%
COc1cc(-c2nc3oc4ccccc4c(=O)c3c(=O)n2Cc2ccco2)cc(OC)c1OC	-18%	-10%
Cc1c(C)c2ccc(Oc3ccc([N+](=O)[O-])cc3C(F)(F)F)c(C)c2oc1=O	-12%	-3%
CC1(C(=O)O)CCCN1C(=O)c1ccccc1OC(F)(F)F (configuration not stated)	-1%	10%
O=C(COC(=O)c1cc[n+]([O-])cc1)Nc1ccc(Cl)cc1C(F)(F)F	-3%	-15%
Cc1cc(C(=O)CSc2nnc(-c3ccc(F)cc3)o2)c(C)n1CC1COc2ccccc2O1 (configuration not stated)	.	-1%
COc1ccc(-c2nsc(NC(=O)c3oc4cc(C)c(C)cc4c3C)n2)cc1	-5%	-2%
COc1ccc(NC(=O)c2sc3nc(N4CCOCC4)c4c(c3c2N)CCCC4)c(OC)c1	-25%	-13%
CCc1c(C)nc2ncnn2c1N1CCC(C(=O)NCc2ccc3c(c2)OCO3)CC1	-23%	-11%
CCc1cc(=O)oc2cc(OCC(=O)N3C[C@H]4C[C@@H](C3)c3cccc(=O)n3C4)ccc12	5%	4%
O=S(=O)(Nc1ccc(-c2ccc(N3CCCC3)nn2)cc1)c1cc(F)ccc1F	1%	-11%
CCOCCn1c(SCc2ccc(C)cc2)nc2c1c(=O)[nH]c(=O)n2C	i	-18%
Cc1ccc(-n2cccn2)c(CN2CCCC(C(=O)c3sccc3C)C2)c1 (configuration not stated)	-19%	?
CSc1ccc(CNC(=O)CCn2ccc3cc(S(=O)(=O)N4CCCC4)ccc32)cc1	-3%&-10%	-7%&-14%
CCOC(=O)C1CCN(CC(=O)Nc2cc(C)c3c(=O)oc4ccccc4c3n2)CC1	6%	-3%
Cc1cc(C)cc(NC(=O)Cn2c(=O)n(-c3cc(C)cc(C)c3)c(=O)c3oc4ccccc4c32)c1	0%	-17%
C=CCNC(=O)C(=O)NCC1CCCN1S(=O)(=O)c1cccs1 (configuration not stated)	i	-12%
O=C(NCC1(c2ccccc2)CCCC1)c1ccccc1Br	-11%	-3%
CCc1nc2c(OCC3COc4ccccc4O3)cccn2c1N(C)C(=O)c1cccs1 (configuration not stated)	-3%	-3%

Ordered by length of the SMILES (smallest number first): some entries from above.
SMILES	Vaccinia mCherry	Vaccinia Venus
O=C(NCC1(c2ccccc2)CCCC1)c1ccccc1Br	-11%	-3%
CC1(C(=O)O)CCCN1C(=O)c1ccccc1OC(F)(F)F (configuration not stated)	-1%	10%
C=CCNC(=O)C(=O)NCC1CCCN1S(=O)(=O)c1cccs1 (configuration not stated)	i	-12%
CCOCCn1c(SCc2ccc(C)cc2)nc2c1c(=O)[nH]c(=O)n2C	i	-18%
COc1ccc(-c2nsc(NC(=O)c3oc4cc(C)c(C)cc4c3C)n2)cc1	-5%	-2%
CCc1nc2c(OCC3COc4ccccc4O3)cccn2c1N(C)C(=O)c1cccs1 (configuration not stated)	-3%	-3%
O=S(=O)(Nc1ccc(-c2ccc(N3CCCC3)nn2)cc1)c1cc(F)ccc1F	1%	-11%
CCOC(=O)C1CCN(CC(=O)Nc2cc(C)c3c(=O)oc4ccccc4c3n2)CC1	6%	-3%
COc1ccc(NC(=O)c2sc3nc(N4CCOCC4)c4c(c3c2N)CCCC4)c(OC)c1	-25%	-13%
Cc1cc(C(=O)CSc2nnc(-c3ccc(F)cc3)o2)c(C)n1CC1COc2ccccc2O1 (configuration not stated)	.	-1%
CCc1cc(=O)oc2cc(OCC(=O)N3C[C@H]4C[C@@H](C3)c3cccc(=O)n3C4)ccc12	5%	4%
Cc1cc(C)cc(NC(=O)Cn2c(=O)n(-c3cc(C)cc(C)c3)c(=O)c3oc4ccccc4c32)c1	0%	-17%
